TRPML1 blocker – blocks the human TRPML1 channel; Q9GZU1; TRPML1-inducible cells, Ca2+ dye fluorescence, FDSS; active compounds read low; inhibition of EC80 agonist-evoked calcium signal; activity change, negative = inhibition, % (test concentration not listed); 390,000 tested, 0.02% active; AID 624415; in the data active means activity change below about -50%; inconclusive means about -30% to -50%; inactive means above about -30%;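 also: stimulus is agonist 54-4 at its EC80 concentration; % is scaled to controls: 0 for no effect and ±100 for the full control effect; compound concentration not given in the record; the text of the record puts the active cut at -80%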
Target sequence (Q9GZU1 whole entry, looked up): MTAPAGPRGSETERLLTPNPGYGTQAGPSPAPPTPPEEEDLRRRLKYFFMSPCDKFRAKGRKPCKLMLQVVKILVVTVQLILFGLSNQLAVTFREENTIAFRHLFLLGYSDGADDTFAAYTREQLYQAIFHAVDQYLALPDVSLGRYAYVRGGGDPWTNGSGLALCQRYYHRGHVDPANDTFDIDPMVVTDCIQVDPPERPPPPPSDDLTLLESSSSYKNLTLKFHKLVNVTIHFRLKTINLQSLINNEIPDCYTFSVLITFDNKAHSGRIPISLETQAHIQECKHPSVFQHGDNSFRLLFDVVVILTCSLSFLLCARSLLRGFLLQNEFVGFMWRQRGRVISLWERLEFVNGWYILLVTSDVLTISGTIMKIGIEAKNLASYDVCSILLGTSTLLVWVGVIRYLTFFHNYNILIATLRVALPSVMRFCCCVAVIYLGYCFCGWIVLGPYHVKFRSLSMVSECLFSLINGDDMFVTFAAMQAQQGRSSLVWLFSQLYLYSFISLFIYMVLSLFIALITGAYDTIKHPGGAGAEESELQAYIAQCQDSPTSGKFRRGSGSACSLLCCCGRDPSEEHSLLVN
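Tet-induced TRPML1-DL cells loaded with Ca8 no-wash calcium dye were read kinetically on FDSS. Compound addition was followed by EC80 agonist 54-4 (4 uM final); inhibition was read over 110 s.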
gsp ag – activates gsp, the McCune-Albright syndrome mutation; 340,000 tested, 0.13% active; Potency, µM (series often up to 76.9 µM), without a hit: at the top dose activation (cAMP increase), hits mostly activators; AID 624287; gsp mutant cells, cAMP HTRF, 30 min; control for the full effect not named in the record; active = well fitted activation curve with a large enough effect; inconclusive = small, poorly fitted or top-dose-only effect, or another doubt; inactive = no such curve, though single readings can be large or run the other way; cell line not stated here;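 also: phosphodiesterase inhibitor Ro 20-1724 added with compounds to block cAMP breakdown; potency is read from the fitted curve at half-maximal effect; nearly all actives have a fitted effect of over 60% in size; about a fifth of the inactives were tested at one dose only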
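Cells stably selected in G418 were plated at 2000/well, grown 16-24 hr, then given compounds in DMSO with the PDE inhibitor […] (300 uM solution added) for 30 min at 37C; cAMP was read by HTRF.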
TRPML1 agonist – activates the human TRPML1 channel; AID 624414; 410,000 tested, 0.12% active; TRPML1-expressing cells, Ca2+ dye fluorescence, FDSS; host cell line not named in the record; reference of the full effect not given here; Q9GZU1; activation, % (no concentration beside the values); in the data active = activation above about 50%; inconclusive = about 30% to 50%; inactive = below about 30%; also: 0% is about no effect; the text of the record puts the active cut at 80%
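Tetracycline-induced TRPML1-DL cells are seeded and incubated overnight before loading with a no-wash Ca2+ dye and quencher. Agonist activity is taken from the 110 s fluorescence read following compound pin-transfer on an FDSS, before EC80 54-4 challenge.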
gsp antagonist – gsp mutant antagonism; Potency, µM (doses to about 76.9 µM), for the others: top-dose activity change, negative = inhibition, actives largely listed as inhibitors; gsp-mutant cells, cAMP HTRF, 30 min; control for the full effect not named in the record; 340,000 tested, 0.4% active; active = falling curve of any shape with a large fitted effect; inconclusive = falling curve, mostly with a smaller effect; inactive = flat or rising curve; cell line not stated here;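 also: intracellular cAMP measured with PDE inhibitor Ro 20-1724 present during compound exposure; potency is read from the fitted curve at half-maximal effect; % is scaled to controls: 0 for no effect and ±100 for the full control effect; nearly all actives have a fitted effect of over 65% in size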
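Cells, 2000/well, grown 16–24 h in DMEM 10% FBS with 0.5 mg/ml G418, then compounds plus […] (300 uM addition stock), 30 min at 37C. cAMP read by HTRF (cAMP-d2 and anti-cAMP antibody-K in lysis buffer) after 30 min RT.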
Menin-MLL FL inh – inhibitors of human menin-MLL interaction, wild-type MLL peptide. Fluorescence polarization, fluorescein-MLL peptide displacement from menin. FP activity change, % at 61.4 µM. 290,000 tested, under 10 active; inconclusive = falling polarisation curve, or a change in total fluorescence; inactive = total fluorescence flat and polarisation flat or rising; no compound was filed as active; the % refers to the polarisation; negative = inhibition;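 also: % of control where 0% means no effect; inhibitors lower the polarisation; unlabelled MLL peptide was the positive control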
ClpP mod – qHTS Assay for Activators of ClpP. ATP-dependent Clp protease proteolytic subunit (Bacillus subtilis (strain 168)), P80244. 340,000 tested, 1.9% active. purified B. subtilis ClpP, FRET peptide cleavage, 20 min. Potency, µM (titrated, usually from 57.5 µM), without a hit: at the top dose activity change, negative = active; active = well fitted falling curve with a large enough effect; inconclusive = small, poorly fitted or top-dose-only effect; inactive = no such curve, though single readings can be large or run the other way; also: potency is read from the fitted curve at half-maximal effect; the source files actives as falling curves though it sought activators and does not explain the sign; nearly all actives have a fitted effect of over 65% in size; many hits overshoot -100%
Target sequence (P80244 whole entry, looked up): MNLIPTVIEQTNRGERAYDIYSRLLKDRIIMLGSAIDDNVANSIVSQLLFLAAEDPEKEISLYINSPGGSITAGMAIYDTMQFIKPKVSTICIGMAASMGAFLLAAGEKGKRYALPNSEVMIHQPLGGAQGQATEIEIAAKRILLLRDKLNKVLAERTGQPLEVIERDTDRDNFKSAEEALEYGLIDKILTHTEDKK
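Buffer: 100 mM Tris/HCl pH8, 100 mM KCl, 0.05% low protease BSA, 2.5% glycerol, 0.01% Tween-20. ClpP 10 microg/mL final; 20 min RT; delta FRET normalized to ADEP and DMSO controls.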
* = called active by the depositor; [ ] = dose if it differs, or a comment. Hits appear at their usual frequency (roughly 2.1% active in at least one column).

CCOc1ccccc1CNc1nc2nc3c(c(=O)n2[nH]1)CCC3 was read as TRPML1 blocker -6, gsp ag inconclusive, TRPML1 agonist 0.4, gsp antagonist 0%, Menin-MLL FL inh 4.0 and ClpP mod -25%.
COc1cc(Cc2ccc(N)c(OC)c2)ccc1N was read as TRPML1 blocker -2, gsp ag 30%, TRPML1 agonist -0.7, gsp antagonist -3%, Menin-MLL FL inh 0.7 and ClpP mod 1.2%.
`COc1ccc(NS(=O)(=O)c2ccc3c(c2)NC(=O)CC(=O)N3)cc1OC` gave TRPML1 blocker 6, gsp ag -25%, TRPML1 agonist 1.0, gsp antagonist 11%, Menin-MLL FL inh -2.3 and ClpP mod 0.3%.
`Cc1ccc(SCC(=O)n2nc(C)cc2C)cc1` gave TRPML1 blocker 10, gsp ag -54%[inhibitor], TRPML1 agonist -0.1, gsp antagonist -4%, Menin-MLL FL inh 5.0 and ClpP mod 4.1%.
Screening CCOc1ccc(Nc2sc(C(=O)c3ccc(F)cc3)c(N)c2S(=O)(=O)c2ccc(C)cc2)cc1 returned TRPML1 blocker 9, TRPML1 agonist 4.6 and ClpP mod -3.4%.
For CCCCN(C)S(=O)(=O)c1cc(-c2nnc3c4ccccc4c(C)nn23)ccc1C the results were TRPML1 blocker -18, TRPML1 agonist 1.3 and ClpP mod -7.6%.
For CC1(C(=O)NS(=O)(=O)c2ccc(C#N)cc2)CCN1C(=O)C1(c2ccc(Cl)cc2)CC1 (centres undefined) the results were TRPML1 blocker 12, TRPML1 agonist -0.1 and ClpP mod 2.8%.
COc1ccc(C(=O)Nc2cc(OC)cc3cccnc23)cc1 was read as TRPML1 blocker 69, gsp ag 5%, TRPML1 agonist 2.3, gsp antagonist inconclusive, Menin-MLL FL inh 0.8 and ClpP mod -24%.
For COc1cccc2sc(Nc3nc(-c4ccncc4)cs3)nc12 the results were TRPML1 blocker 12, gsp ag -20%[15.4 µM], TRPML1 agonist 1.0, gsp antagonist -14% and Menin-MLL FL inh -1.5.
`CCCC(=O)Nc1ccc(Cl)c(NC(=O)c2ccc([N+](=O)[O-])cc2Cl)c1` gave TRPML1 blocker -2, gsp ag -8%, TRPML1 agonist 0.7, gsp antagonist 11%, Menin-MLL FL inh -0.9 and ClpP mod 2.0%.
CC(=O)c1ccc(S(=O)(=O)NC2CC(=O)N(c3cccc(F)c3)C2)cc1 (centres undefined) was read as TRPML1 blocker -2, gsp ag -2%[15.4 µM], TRPML1 agonist 1.9 and gsp antagonist 10%.
For CCC(C)NC(=O)c1cc(Sc2cccc(Cl)c2)nc2ccccc12 (centres undefined) the results were TRPML1 blocker -4, TRPML1 agonist 1.3 and ClpP mod 5.0%.
Cc1cc(=O)[nH]c(SCC(=O)Nc2ccccc2[N+](=O)[O-])n1 was read as TRPML1 blocker -7, gsp ag 11%[15.4 µM], TRPML1 agonist 1.6, gsp antagonist -15% and Menin-MLL FL inh -0.9.
`COc1ccc(NC(=S)N(CCN(C)C)Cc2cccs2)cc1` gave TRPML1 blocker 18, gsp ag 1%[15.4 µM], TRPML1 agonist 1.1, gsp antagonist 5% and Menin-MLL FL inh -0.1.
Cc1ccc(S(=O)(=O)N2CCN(C(=O)N(C)C)CC2)cc1C was read as TRPML1 blocker -14, gsp ag -4%, TRPML1 agonist -0.3, gsp antagonist -3%, Menin-MLL FL inh 2.2 and ClpP mod 1.2%.
`Cc1sc(NC(=O)c2ccco2)c(C(Nc2ccccn2)c2ccccc2)c1C` (centres undefined) gave TRPML1 blocker 18, gsp ag 1%, TRPML1 agonist 0.3, gsp antagonist -5%, Menin-MLL FL inh 0.2 and ClpP mod -5.6%.
For Cc1ccc(N(CN2CCCC2=O)C(=O)c2ccc(OC(C)C)cc2)cc1 the results were TRPML1 blocker 24, gsp ag 0%, TRPML1 agonist 2.1, gsp antagonist inconclusive, Menin-MLL FL inh -0.1 and ClpP mod -0.5%.
O=C(O)c1ccc2c(c1)C(=O)N(c1ccc(C(=O)OCC(=O)c3ccccc3)cc1)C2=O was read as TRPML1 blocker 16, gsp ag -2%[15.4 µM], TRPML1 agonist 1.1 and gsp antagonist -23%.
O=C(O)c1ccc(CNCc2cccc(OCc3ccc(F)cc3)c2)cc1 was read as TRPML1 blocker -26, gsp ag 1%, TRPML1 agonist 0.4, gsp antagonist -6%, Menin-MLL FL inh -0.3 and ClpP mod -1.2%.
Screening CC(C)(C)N1C(=O)[C@H]2[C@@H](c3ccc(Br)cc3)N3C(=O)N(c4cccc(Br)c4)C(=O)[C@@]3(Cc3ccccc3)[C@H]2C1=O returned TRPML1 blocker -6, gsp ag -34%[inhibitor], TRPML1 agonist 0.6, gsp antagonist -18%, Menin-MLL FL inh -2.1 and ClpP mod -0.3%.
For C[C@@H]1CN([C@H](C)CO)C(=O)CCCn2nncc2CO[C@H]1CN(C)C(=O)Nc1ccnc(N2CCOCC2)c1 the results were TRPML1 blocker 6, gsp ag -14%, TRPML1 agonist -0.1 and ClpP mod -9.2%.
`OCCC1CN(Cc2cccc(OC3CCCC3)c2)CCN1Cc1ccsc1` (centres undefined) gave TRPML1 blocker 5, gsp ag inconclusive, TRPML1 agonist 0.6, gsp antagonist 6% and Menin-MLL FL inh 4.4.
`Cc1ccc(S(=O)(=O)CC2CSc3nc(N)cc(=O)n32)cc1` (centres undefined) gave TRPML1 blocker -3, gsp ag 5%, TRPML1 agonist -0.3, gsp antagonist 6%, Menin-MLL FL inh -0.4 and ClpP mod 1.2%.
O=c1cc(NCc2ccccc2)nc2ccccn12 was read as TRPML1 blocker 21, gsp ag -6%[15.4 µM], TRPML1 agonist -0.3, gsp antagonist 5% and Menin-MLL FL inh 0.9.
Screening Cc1ccc2c(c1)N(C(=O)CCC(=O)NCc1cccnc1)CCO2 returned TRPML1 blocker -4, gsp ag -42%[inhibitor], TRPML1 agonist -0.3, gsp antagonist -3%, Menin-MLL FL inh 1.9 and ClpP mod -0.3%.
`CC(=O)N1c2ccc(S(=O)(=O)N3CCCC(C(=O)Nc4cccc(F)c4)C3)cc2CC1C` (centres undefined) gave TRPML1 blocker 8, gsp ag inconclusive, TRPML1 agonist 1.2, gsp antagonist -24%, Menin-MLL FL inh 2.3 and ClpP mod -2.0%.
For CC(=O)c1cnn(-c2c(Cl)cc(Cl)cc2Cl)c1C the results were TRPML1 blocker 13, gsp ag 5%, TRPML1 agonist 0.4, gsp antagonist 2%, Menin-MLL FL inh 0.0 and ClpP mod 0.9%.
O=C(Nc1ccon1)c1sc2cc(F)ccc2c1Cl was read as TRPML1 blocker 4, gsp ag 6%, TRPML1 agonist -0.9, gsp antagonist -3%, Menin-MLL FL inh 2.1 and ClpP mod 1.1%.
Screening CCC1C/C(=C\c2cccnc2)C(=O)/C(=C/c2cccnc2)C1 (centres undefined) returned TRPML1 blocker 6, gsp ag 7%, TRPML1 agonist 1.1, gsp antagonist -7%, Menin-MLL FL inh 4.8 and ClpP mod -0.5%.
CC(C)NC(=O)N(C)C[C@H]1Oc2c(NC(=O)Nc3ccccc3)cccc2C(=O)N([C@H](C)CO)C[C@@H]1C was read as TRPML1 blocker -1, TRPML1 agonist -0.3, gsp antagonist -9% and ClpP mod -0.2%.
`CC(C)=CCC[C@](C)(O[C@@H]1O[C@H](CO[C@@H]2OC[C@H](O[C@@H]3OC[C@@H](O)[C@H](O)[C@H]3O)[C@H](O)[C@H]2O)[C@@H](O)[C@H](O)[C@H]1O)C1CC[C@]2(C)C1[C@H](O)CC1[C@@]3(C)CC[C@H](O)C(C)(C)C3[C@@H](O)C[C@]12C` (some centres undefined) gave TRPML1 blocker 20, TRPML1 agonist -0.4, gsp antagonist 0% and ClpP mod 1.1%.
For CN(CC(=O)Nc1ccc(Cl)c(C(F)(F)F)c1)C(=O)Cc1ccsc1 the results were TRPML1 blocker -14, gsp ag 15%[15.4 µM], TRPML1 agonist 1.0 and gsp antagonist inconclusive.
Screening NC(=O)NC(=O)CSc1nc(C2CCCCC2)n(-c2ccccc2)n1 returned TRPML1 blocker 26, gsp ag 5%[15.4 µM], TRPML1 agonist -0.8, gsp antagonist inconclusive, Menin-MLL FL inh 9.0 and ClpP mod -2.6%.
Screening COC(=O)c1sccc1NC(=O)c1c(-c2ccccc2)noc1C returned TRPML1 blocker 7, gsp ag 19%, TRPML1 agonist 3.7, gsp antagonist -4%, Menin-MLL FL inh 1.6 and ClpP mod -2.7%.
CCCCC(=O)Nc1cc(-c2cn3cccnc3n2)ccc1C was read as TRPML1 blocker 6, TRPML1 agonist -0.1 and ClpP mod 4.4%.
Screening CCOC(=O)CNc1cccc(C(F)(F)F)c1 returned TRPML1 blocker -4, gsp ag -15%, TRPML1 agonist 0.7, gsp antagonist 11% and Menin-MLL FL inh 1.1.
For CCC1CCCCN1CCCNC(=O)c1ccc2c(c1)N(Cc1ccc(F)cc1)C(=O)c1ccccc1S2=O (centres undefined) the results were TRPML1 blocker 29, gsp ag -11%, TRPML1 agonist 4.6, gsp antagonist 10%, Menin-MLL FL inh -11 and ClpP mod -1.3%.
CCN(CC)CCNC(=O)c1ccc(Cl)c(S(=O)(=O)Nc2ccccc2OC)c1 was read as TRPML1 blocker 2, gsp ag 5%, TRPML1 agonist -0.5, gsp antagonist 5%, Menin-MLL FL inh 5.7 and ClpP mod -0.3%.
For CCn1c(CC(=O)Nc2ccc(F)cc2)nnc1SCC(=O)N1CCOCC1 the results were TRPML1 blocker -2, gsp ag 0%[15.4 µM], TRPML1 agonist 0.3 and gsp antagonist 4%.
N#C/C(=C\c1c[nH]c2ccc(Br)cc12)c1ccccn1 was read as TRPML1 blocker -17, gsp ag -8%, TRPML1 agonist 1.7, gsp antagonist -25% and Menin-MLL FL inh inconclusive.
For CC1CCCC(C)N1C(=O)COc1ccc(C(=O)Nc2ccccc2N2CCOCC2)cc1 (centres undefined) the results were TRPML1 blocker -15, gsp ag 2%[15.4 µM], TRPML1 agonist 0.8, gsp antagonist -36%, Menin-MLL FL inh -4.8 and ClpP mod 1.1%.
Screening CC(C)c1ccc(Oc2cccc3c2S(=O)(=O)N(C2CCCC2)CC(COCc2ccccc2)O3)cc1 (centres undefined) returned TRPML1 blocker -13, TRPML1 agonist 0.5, gsp antagonist -9% and ClpP mod -3.7%.
Screening Cc1c(C)c2cc(Cl)c(O)c(CN(C)C)c2oc1=O returned TRPML1 blocker 1, gsp ag inconclusive, TRPML1 agonist -0.3, gsp antagonist -1%, Menin-MLL FL inh 2.4 and ClpP mod 24%.

Quoted at random: 2 entries already listed, in no set order.
For CCn1c(CC(=O)Nc2ccc(F)cc2)nnc1SCC(=O)N1CCOCC1 the results were TRPML1 blocker -2, gsp ag 0%[15.4 µM], TRPML1 agonist 0.3 and gsp antagonist 4%.
N#C/C(=C\c1c[nH]c2ccc(Br)cc12)c1ccccn1 was read as TRPML1 blocker -17, gsp ag -8%, TRPML1 agonist 1.7, gsp antagonist -25% and Menin-MLL FL inh inconclusive.

Bioassay records (PubChem)
